HIV Env fusion: HIV envelope-mediated fusion inhibition; 360,000 compounds, 1.1% hits; AID 651610; HeLa-JRFL Env/CEM21 cell fusion, luciferase; inhibition, % at 12.3 µM;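 active means mean replicate inhibition score of at least 50 and every replicate individually at or above 50; inconclusive means only one of the two criteria met; inactive means mean below 50 and not all replicates reaching 50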;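 further: 0% = plate neutral controls and 100% = maraviroc near 300 nM; one replicate is shown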
MT1-MMP act inh: blocks activation of human MT1-MMP; HT1080 RFP-PRO-GFP cells, GFP/RFP ratio fluorescence, overnight; percent of plate control window, DMSO zero; 360,000 compounds, 0.061% hits; GFP/RFP ratio change, % at 20 µM; P50281;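 active means GFP/RFP ratio change of at least 30% with cell ATP level not reduced by more than half and red fluorescence within 50% of control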; further: strong numbers were not always called active
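Assay system: HT1080 RFP-PRO-GFP cells | Dosing: 20 µM single dose, 1% DMSO | Incubation: Cells overnight before dosing, compound overnight, 37 °C, 5% CO2 | Evaluation: GFP/RFP fluorescence ratio | Control set: DMSO-only wells and HT1080 RFP-L50D-GFP cell wells as references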
MT1-MMP act inh RFP: also measured in MT1-MMP act inh; calls as there; RFP signal change, %; measured here: RFP expression control read;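 0 = vehicle wells; hits needed this value within 50% of zero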
Numbers without * were called inactive; ? = inconclusive.

SMILES	HIV Env fusion	MT1-MMP act inh	MT1-MMP act inh RFP
Cc1ccc(CNC(=O)COc2cccc3c2OC(C)(C)C3)cc1	4	5	5
COCC(=O)OC1CCn2c1nc1c2C(=O)C(C)=C(NC(C)=O)C1=O (stereo unspecified)	29	-24	-29
Cc1ccc(C(=O)Nc2c(-c3ccccc3)[nH][nH]c2=O)cc1	-25	-4	2
COC1=C(C)C(=O)C2=C(C1=O)C1C3CC4=C(C(=O)C(OC)=C(C)C4=O)C(CNC(=O)C(C)=O)N3C(C#N)C(C2)N1C (stereo unspecified)	64*	-11	-18
N#Cc1cccc(C(=O)C(=O)N2CCC(Cc3ccccc3)CC2)c1	-11	2	-1
COC(=O)c1ccc2nc(-c3ccc(C)cc3)c(Cc3cccc(Cl)c3)n2c1	-1	-4	-10
Cc1cccc(C)c1-n1nnnc1C1(C)CCC(=O)N1CCCn1ccnc1 (stereo unspecified)	-2	-2	-2
COC(=O)C[C@H]1CC[C@@H](NS(=O)(=O)c2ccc(C)cc2)[C@@H](CO)O1	11	0	4
Cc1ccc(C)c(COC(=O)c2cccc(S(=O)(=O)N3CCCC3)c2)c1	-17	-1	-4
COC(=O)[C@]12CCCCC=C1N(CCc1ccc(OC)c(OC)c1)C(=O)[C@H](CC(=O)NCC1CCCCC1)C2	-91	-5	-5
Cc1ccc(C)c(N2N=C(C(=O)OCc3nnc(-c4cccs4)o3)CCC2=O)c1	-16	-6	3
CC(C)CNC(=O)C1C(=O)Nc2ccccc2C(=O)N1C1CCCCC1 (stereo unspecified)	12	0	2
COc1cccc(OC)c1OC(=O)c1ccccc1	-9	5	0
O=C(Nc1ccc(F)cc1)C(c1cccc(F)c1)N1CCN(Cc2c(F)cccc2Cl)CC1 (stereo unspecified)	-18	-7	-3
CCOC(=O)[C@]12CCC=C1N(Cc1ccccc1)C(=O)[C@H](CC(=O)NCc1ccccc1)C2	-44	2	1

Whole records as entered above.
`CC(C)CNC(=O)C1C(=O)Nc2ccccc2C(=O)N1C1CCCCC1` (stereo unspecified) reads HIV Env fusion: 12; MT1-MMP act inh: 0; MT1-MMP act inh RFP: 2
`O=C(Nc1ccc(F)cc1)C(c1cccc(F)c1)N1CCN(Cc2c(F)cccc2Cl)CC1` (stereo unspecified) reads HIV Env fusion: -18; MT1-MMP act inh: -7; MT1-MMP act inh RFP: -3
`COC(=O)C[C@H]1CC[C@@H](NS(=O)(=O)c2ccc(C)cc2)[C@@H](CO)O1` reads HIV Env fusion: 11; MT1-MMP act inh: 0; MT1-MMP act inh RFP: 4

Going on with the list:
SMILES	HIV Env fusion	MT1-MMP act inh	MT1-MMP act inh RFP
CCCCCc1c(-c2ccc(OC)c(OC)c2)ncn1CCc1ccccc1OC	49	0	-33
Cc1ccc(COC(=O)c2cccc(S(=O)(=O)N3CCCCCC3)c2)cc1	1	-3	-2
CCOc1ccc(CCN2C(=O)C(=O)N([C@@H](Cc3ccc(O)cc3)CN3CCC[C@H]3CN3C(=O)C(=O)NC[C@@H]3CC(C)C)C[C@@H]2Cc2ccccc2)cc1	26	6	7
CCOC(=O)C(Cc1ccc(O)cc1)NC(=O)c1cc2c(cn1)[nH]c1ccccc12 (stereo unspecified)	-27	10	6
CCOc1cc(C#N)ccc1OCC(=O)NNC(=O)CC1CCS(=O)(=O)C1 (stereo unspecified)	-5	3	4
CC(=O)Nc1ccc(C=NN=C2c3ccccc3-c3ccccc32)cc1	4	1	-1
COc1ccc(C=C2CCc3ccccc3C2=O)cc1	12	2	5
CCC(C)[C@H]1CNC(=O)C(=O)N1CCc1cccc2ccccc12 (stereo partly specified)	11	10	8
CCOC(=O)c1ccccc1NC(=O)COC(=O)C(Cc1c[nH]c2ccccc12)NC(C)=O (stereo unspecified)	-23	0	2
CC1CCCCCCC1OC(=O)c1ccccc1C(=O)O (stereo unspecified)	19	-4	-3
Nc1ccn([C@@H]2O[C@H](C(=O)NCCCN3CCCC3=O)[C@@H](O)[C@H]2O)c(=O)n1	-21	0	3
COc1ccccc1/C=C/C(=O)OCC(=O)Nc1nnc(-c2ccccc2)o1	18	1	4
CC(=O)OCC1CC(COC(C)=O)C(COC(C)=O)CC1COC(C)=O (stereo unspecified)	20	-7	-4
Cc1ccc(S(=O)(=O)NCc2ccccc2Br)cc1	-14	8	5
CCc1cc(C(=O)Nc2cc(S(=O)(=O)N3CCCCC3)ccc2N2CCN(C)CC2)sc1C	?	-1	-3
O=C(Nc1ccccc1N1CCCC1)C1CCCO1 (stereo unspecified)	14	0	3
COC(=O)C[C@H]1C=C[C@@H](NC(=O)C2CC2)[C@@H](CO)O1	4	0	4
Cc1cc2c(cc1C)-n1nnnc1C(N1CCCNCC1)C(=O)N2 (stereo unspecified)	6	-1	4
COc1ccc(-c2c(-c3ccsc3)oc3c2C(O)CCC3)cn1 (stereo unspecified)	13	4	3
COC(=O)C[C@@H]1OC[C@H](C)N1S(=O)(=O)c1ccc(C)cc1	7	1	5
Cc1ccc2cccc(OC(=O)c3c(F)cccc3Cl)c2n1	-51	4	3
O=C(NCc1ccccc1)c1ccc(C(=O)NCc2ccccc2)cc1	82*	5	-1
O=CN(Cc1ccccc1)c1cc([N+](=O)[O-])ccc1OCc1ccccc1	-9	-2	-8
C#CCNC(=O)C[C@@H]1C[C@@]2(C(=O)OC)CC(C)(C)CC=C2N(CCCCCCCC)C1=O	5	-4	-1
COC(=O)[C@@]1(Cc2ccc(F)cc2)[C@H]2c3cc(C(=O)N(C)C)n(Cc4cc(C)n(C)n4)c3C[C@H]2CN1C(=O)c1ccccc1	-42	-1	-1
CCOC(=O)[C@]12CCC=C1N(Cc1ccc3c(c1)OCO3)C(=O)[C@H](CC(=O)NCCCN1CCCC1=O)C2	11	8	9
COC(=O)C[C@H]1C=C[C@@H](NC(=O)NC2CCCCC2)[C@@H](CO)O1	0	0	7
COc1cccc(C2c3cc4c(cc3OC(C)(N3CCCC3)C2C)OCO4)c1O (stereo unspecified)	-8	0	-1
COC(=O)[C@]12CCCCC=C1N(Cc1ccc3c(c1)OCO3)C(=O)[C@H](CC(=O)NCCCCc1ccccc1)C2	-13	-6	-8
CC1(C(=O)NCc2ccccc2)CCC(=O)N1C1CCN(Cc2ccccc2)CC1 (stereo unspecified)	?	1	1

Some entries already given, reduced to MT1-MMP act inh RFP.
SMILES	MT1-MMP act inh RFP
Cc1ccc(C)c(COC(=O)c2cccc(S(=O)(=O)N3CCCC3)c2)c1	-4
COC(=O)[C@]12CCCCC=C1N(CCc1ccc(OC)c(OC)c1)C(=O)[C@H](CC(=O)NCC1CCCCC1)C2	-5
Cc1ccc(C)c(N2N=C(C(=O)OCc3nnc(-c4cccs4)o3)CCC2=O)c1	3
CC(C)CNC(=O)C1C(=O)Nc2ccccc2C(=O)N1C1CCCCC1 (stereo unspecified)	2
COc1cccc(OC)c1OC(=O)c1ccccc1	0
O=C(Nc1ccc(F)cc1)C(c1cccc(F)c1)N1CCN(Cc2c(F)cccc2Cl)CC1 (stereo unspecified)	-3
CCOC(=O)[C@]12CCC=C1N(Cc1ccccc1)C(=O)[C@H](CC(=O)NCc1ccccc1)C2	1

Going on with the list:
SMILES	HIV Env fusion	MT1-MMP act inh	MT1-MMP act inh RFP
Nc1nc(SCC(=O)c2c(N)n(C3CC3)c(=O)[nH]c2=O)n[nH]1	-13	2	1
COCCCn1c(SC(C)C(=O)Nc2c(C)n(C)n(-c3ccccc3)c2=O)n[nH]c1=O (stereo unspecified)	-14	-6	6
CC(C)C(C(=O)NCc1ccccc1)N(C)Cc1ccc(Cl)c(Cl)c1 (stereo unspecified)	-3	-9	-13
CN(C)c1ccc(/C=C/C(=O)c2ccc(O)cc2)cc1	-292	-121	1
O=C(O)c1ccc(C=NN=C2c3ccccc3-c3ccccc32)cc1	18	2	-4
COc1ccc(SCC(O)Cn2c3ccccc3c3ccccc32)c(OC)c1 (stereo unspecified)	26	7	-4
CC(C)CCN1C(=O)CSCC1(C)C(=O)Nc1ccc2c(c1)OCCO2 (stereo unspecified)	-3	2	5
O=C(O)C1C=CC(C(=O)O)c2ccccc21 (stereo unspecified)	37	0	5
COc1ccc(NC(=O)C(c2ccc(C#N)cc2)n2c(=O)c(-c3cc4ccccc4[nH]3)nc3ccccc32)cc1 (stereo unspecified)	-30	-4	-4
CC(C)c1cc(C(=O)NCCc2cccs2)c(N)s1	-16	-4	2
COc1ccc(S(=O)(=O)Nc2cccc(S(=O)(=O)N(C)C)c2)cc1[N+](=O)[O-]	12	1	5
COc1ccc(C(C(=O)NC(C)(C)C)n2c(COc3ccc(C)cc3)nc3ccccc32)cc1 (stereo unspecified)	-25	-17	-21
COCCCn1cc(CN2CC(N3CCN(CCN(C)C)CC3)CS2(=O)=O)nn1 (stereo unspecified)	-11	2	8
COC1=CC(=O)OC(c2ccc(C#N)cc2)C1 (stereo unspecified)	-20	8	5
CN1CCN(C(=O)c2cc3c(c(-c4cccc(-c5cccnc5)c4)n2)[C@H](CCO)N(C(=O)CC2CC2)C3)CC1	8	3	3
Cc1cc2nc(C(C)(C)C)c(Cc3cccc(Cl)c3)n2c(C)c1Br	18	-37	-50
O=C1N(Cc2ccccc2)c2ccc(Br)cc2[C@]12C[C@H](O)CO2	9	11	10
COC(=O)[C@@]12C[C@@H](CC(=O)NCc3ccc(C)o3)C(=O)N(CCc3ccc(OC)c(OC)c3)C1=CCC(C)(C)C2	26	-1	-6
CC(C)c1cc(NCCN2CCOCC2)n2c(nc3ccccc32)c1C#N	1	0	2
COc1ccc(-c2c(C(=O)c3ccccc3)[nH]c(N)c2C(=O)NCc2ccccc2)cc1OC	-16	-2	-2
CC(=O)Nc1ccc2c(c1)-c1ccc(F)cc1C2	-21	2	-1
CCCCCCCCN1C(=O)[C@H](CC(=O)NCc2cccc(C(F)(F)F)c2)C[C@@]2(C(=O)OCC)CCC=C12	24	3	-4
Cc1ccc(C)c(NC(=O)CC2Sc3ccccc3NC2=O)c1 (stereo unspecified)	16	5	0
Fc1cccc(Cc2c(C3CCCCC3)nc3c4ccccc4ccn23)c1	-10	-3	-2
Cc1cc(CCNC=O)c(C)c2c1sc1ccccc12	37	11	-1
CN=c1sc2c(n1C)C(=O)c1ccccc1C2=O	-5	8	-4
COC(=O)[C@@]1(Cc2ccc(F)cc2)[C@H]2c3cc(C(=O)N(C)C)n(CC4CC4)c3C[C@H]2CN1C(=O)c1ccccc1	-19	-4	-4
O=C(NC1CCCC1)C1c2ccccc2OCC(=O)N1CC(F)(F)F (stereo unspecified)	-13	3	5
CCCCCCN1C[C@@H](O)[C@H](n2cc(-c3ccc(F)cc3)nn2)C[C@@H]1c1ccccc1	-36	3	-1
COc1ccc(C=C(C#N)C(=O)c2ccccc2)cc1	5	6	10

Arranged by number of heavy atoms (smallest number first): three of the compounds above.
SMILES	HIV Env fusion	MT1-MMP act inh	MT1-MMP act inh RFP
CCOc1cc(C#N)ccc1OCC(=O)NNC(=O)CC1CCS(=O)(=O)C1 (stereo unspecified)	-5	3	4
Cc1ccc(C)c(N2N=C(C(=O)OCc3nnc(-c4cccs4)o3)CCC2=O)c1	-16	-6	3
COc1ccc(NC(=O)C(c2ccc(C#N)cc2)n2c(=O)c(-c3cc4ccccc4[nH]3)nc3ccccc32)cc1 (stereo unspecified)	-30	-4	-4

The listing continues.
SMILES	HIV Env fusion	MT1-MMP act inh	MT1-MMP act inh RFP
CCCCCc1c(-c2ccccc2)ncn1CCc1ccccc1OC	13	-2	-11
Cc1csc(-c2nc3ccccc3n2C(C)c2nc3ccccc3[nH]2)c1 (stereo unspecified)	-19	-3	1
O=C(NC1CCCCC1)C(c1ccccc1F)n1c(=O)c(-c2ccco2)nc2ccccc21 (stereo unspecified)	59*	-8	9
Cc1cc(N2CCN(C(C(=O)NC3CCCC3)c3ccc(-c4ccccc4)cc3)CC2)c2ccccc2n1 (stereo unspecified)	-144	-5	-17
COC(=O)[C@@]12C[C@@H](CC(=O)NCc3cccc(C(F)(F)F)c3)C(=O)N(Cc3ccco3)C1=CCC(C)(C)C2	75*	-5	-5
CC(=O)C1(C)C(=O)N(c2ccc(F)cc2)C(=O)N1c1ccc(F)cc1 (stereo unspecified)	-45	5	2
O=C(/C=C/c1ccc([N+](=O)[O-])cc1)c1ccccc(=O)c1O	-272	10	-19
CCCCn1nnnc1C(c1cc2ccccc2o1)N(C)Cc1ccccc1 (stereo unspecified)	9	-8	-10
O=[N+]([O-])c1ccc(O)c(CNCc2ccccc2)c1	9	5	-1
CCOC1=C2CN(S(=O)(=O)c3ccc(C)cc3)C(c3cccc(Cl)c3)CC2N(S(=O)(=O)c2ccc(C)cc2)C(c2ccncc2)C1 (stereo unspecified)	26	3	-21
O=C1c2ccccc2C(c2nnnn2Cc2ccccc2)N1C1CC1 (stereo unspecified)	3	3	7
CC(=O)C[C@@H]1OC[C@H](C)N1S(=O)(=O)c1ccc(C)cc1	-11	6	3
Cc1nc2c(O)c3c(c(O)c2nc1C)C1C=CC3CC1	15	1	-17

Screens from PubChem.

Only part of the results is shown. The share of hits here may be higher or lower than overall.
